Beta apoptosis = beta cell apoptosis inhibition. hit rate 0.8% among 300,000. INS-1E cytokine-induced death, ATP luminescence, 48 h; percent of positive-control rescue, neutral wells zero. protection from apoptosis, % (concentration not given with the values);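 active = all replicates at 75% or more, or half of them and the mean; inconclusive = half reach 75% but not the mean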;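 also: 0% = cytokine-treated negative control wells and 100% = positive control rescue; higher means more ATP so stronger rescue from cytokine killing; wells of about 40 µL received 100 nL stock; the first replicate is given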
A1 inh = inhibitors of the anti-apoptotic protein A1, read as caspase activation | MEF A1-2A-BIM cells, Caspase-Glo 3/7 luminescence, 3 h; percent of clofoctol response, vehicle zero | caspase activation, % (concentration not given with the values) | hit rate 0.066% among 330,000 | AID 2462;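 active = over half of replicate activation scores above 10%, or exactly half above 10 with the replicate mean above 10; inconclusive = replicate mean below 10 yet half the replicates above 10; inactive = over half of replicates below 10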;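 also: wells of about 30 µL received 50 nL stock; many hits fall short of the cut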
RanGTP-Imp inh = disruptors of Ran-importin-beta complex formation – biochemical, FRET, CFP-Ran, YFP-importin-beta, homogeneous, primary screen; hit rate 1.1% among 300,000; cell-free CFP-Ran/YFP-importin-beta FRET ratio; inhibition, % (no concentration beside the values);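 active = most replicates above 15%; inconclusive = exactly half above 15%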;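 also: 0% = DMSO wells and 100% = Ran loaded with GDP instead of GTP; wells of about 40 µL received 100 nL stock; the first replicate is given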
T cruzi repl = T. cruzi replication inhibition; inhibition, % (concentration not given with the values); T. cruzi beta-gal in NIH3T3, luminescence, 90 h; AID 1885; hit rate 1.4% among 300,000;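 active = mean inhibition across valid replicates above about 55%, limit read from the data; inconclusive = mean below that limit but half or more replicates reach it; inactive = mean below it, under half of replicates reach it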;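 also: signal also drops with host cell toxicity which is not excluded here; 0% = plate median of DMSO wells and 100% = zero luminescence signal; higher percent means less beta-gal luminescence so fewer parasites; stock transfer was 50 nL into about 50 µL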
MLL AF4-AF9 inh = MLL-AF4/AF9 protein interaction inhibition | AID 651704 | AlphaScreen, biotin-AF4 peptide binding to FLAG-AF9 | inhibition, % at 10 µM | hit rate 0.47% among 350,000;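 active = every replicate reaching a set inhibition limit, whatever the replicate mean, cut at about 25% in these data; inconclusive = mean inhibition reaches that limit but some replicates miss it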;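 also: 0% = plate neutral control median and 100% = total signal loss; the record names both 10 and 1 µM as test concentration; the first replicate is given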
Target sequence (P42568 whole entry, looked up): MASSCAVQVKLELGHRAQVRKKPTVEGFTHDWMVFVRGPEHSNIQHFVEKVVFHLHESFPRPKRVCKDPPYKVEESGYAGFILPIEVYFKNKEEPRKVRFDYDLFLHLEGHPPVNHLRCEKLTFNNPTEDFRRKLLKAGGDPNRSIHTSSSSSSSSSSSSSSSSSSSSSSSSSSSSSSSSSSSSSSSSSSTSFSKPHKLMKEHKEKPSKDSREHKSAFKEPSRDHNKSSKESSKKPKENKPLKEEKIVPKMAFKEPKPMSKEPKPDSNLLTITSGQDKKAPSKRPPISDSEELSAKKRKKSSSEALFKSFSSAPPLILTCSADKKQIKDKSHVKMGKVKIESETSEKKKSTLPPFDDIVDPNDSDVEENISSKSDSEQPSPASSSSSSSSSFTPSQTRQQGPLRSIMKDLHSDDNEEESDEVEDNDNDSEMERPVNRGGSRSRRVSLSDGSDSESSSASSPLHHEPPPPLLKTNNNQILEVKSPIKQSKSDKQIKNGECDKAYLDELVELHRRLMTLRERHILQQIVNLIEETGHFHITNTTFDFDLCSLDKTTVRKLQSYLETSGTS
Ecoli rRNA inh = inhibitors of bacterial rRNA selective over humanized ribosomes; AID 720706; hit rate 1.6% among 350,000; E. coli WT GFP vs humanized-ribosome RFP mutants, fluorescence, 24 h; hits give low values; DMSO median 0, no signal -100; GFP signal change (wild-type ribosome), % (test concentration not listed);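 active = significant combined selectivity score with lowered wild-type GFP, culture density cut under 30%, mutant RFP and density less affected; inactive = any of these conditions unmet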; also: one replicate is shown; some compounds called inactive have numbers as strong as hits
Vif TR-FRET = HIV-1 Vif–A3G interaction blockers – biochemical, TR-FRET, GST-Vif 1-94, biotin-A3G peptide, dose response retest, primary screen (AID 1117319); hit rate 0.57% among 260,000; one-dose inhibition, %; IC50 in µM for titrated hits; TR-FRET GST-Vif / biotin-A3G peptide binding; higher % means a stronger effect; test concentration not given here; strong numbers were not always called active;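 active = above the screen mean plus three standard deviations and confirmed in dose response; inconclusive = results disagree or hit not tested in dose response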;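 also: Vif residues 1-94 fused to GST binding biotinylated APOBEC3G peptide 110-148; 0% = full assay without inhibitor and 100% = GST in place of GST-Vif; retest series ran down from 100 µM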
Calb FLC = affects C. albicans growth with fluconazole; hit rate 0.57% among 300,000; growth inhibition, % (no concentration beside the values); C. albicans CaCi-2 (fluconazole-resistant clinical isolate) + fluconazole, Alamar Blue growth, 48 h;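 active = most replicates above 75%; inconclusive = exactly half above 75%; inactive = most below 75%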;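 also: all wells also contain fluconazole at 8 µg/ml as a sub-toxic cotreatment; 0% = median of DMSO wells and 100% = median of geldanamycin control wells; wells of about 8 µL received 7.5 nL stock; the first replicate is given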
Ecoli rRNA inh OD600 = further read-out of Ecoli rRNA inh, marked with its call; OD600 change, %; measured here: OD600 growth;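 optical density of the mix in the first replicate; 0 = DMSO median and -100 = no signal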
Ecoli rRNA inh RFP = second read-out of Ecoli rRNA inh, no call of its own (marks repeat the call); RFP signal change, %; measured here: RFP humanized mutant strains;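 first replicate; 0 = DMSO median and -100 = no signal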
* hit, by the source's call; ? = inconclusive; . = not tested or not shown; & = joins results of further samples. Some of the compounds tested; rates above refer to the full screens.

SMILES	Beta apoptosis	A1 inh	RanGTP-Imp inh	T cruzi repl	MLL AF4-AF9 inh	Ecoli rRNA inh	Ecoli rRNA inh OD600	Ecoli rRNA inh RFP	Vif TR-FRET	Calb FLC
COC(=O)c1cn[nH]c1NC(=S)Nc1ccc(C)cc1Cl	7	0.3	-1.6	6	.	.	.	.	>100µM*	18
O=C(NCCOC(=O)c1ccc(F)cc1)c1ccc(F)cc1	-3	0.7	?	1	1.2	11	8	3.6	-8%	-12
Nn1c(SCC(=O)NC2CCCc3ccccc32)nnc1-c1cccs1 (stereo unspecified)	-4	2.0	-3.3	-12	.	.	.	.	11%	9
CC1Cc2ccccc2N1C(=O)COC(=O)c1ccc(S(=O)(=O)N(C)C)cc1 (stereo unspecified)	-3	-0.9	2.0	-3	.	.	.	.	8%	-4
CCOC(=O)N1CCN(S(=O)(=O)c2ccc(C(=O)Nc3ccc4c(c3)C(=O)NC4=O)cc2)CC1	-6	-0.7	0.4	-1	-3.2	10	20	14	4%	-40
O=C1CC(N2CCN(C/C=C/c3ccccc3)CC2)C(=O)N1Cc1ccc(N2CCCC2=O)cc1 (stereo unspecified)	1	0.1	-0.1	17	.	.	.	.	-1%	-26
COC(=O)c1ccc(CN(c2ccc(C(=O)O)c(O)c2)S(=O)(=O)c2ccc(Cl)c([N+](=O)[O-])c2)cc1	-1	-0.7	7.0	-3	-0.9	1	1	1.4	-1%	17
COc1ccc(NC(=O)c2ccc3c(c2)NC(=O)CS3)cc1	4	-0.5	.	.	0.4	6	7	2.3	0%	.
Clc1ccc(-c2n[nH]c3c2CCC3)c(Cl)c1	2	-0.5	-0.6	2	.	.	.	.	-1%	-1
CCOc1ccc(-n2c(=O)[nH]cc(C(=O)Nc3ccc(OC)c(OC)c3)c2=O)cc1	?	1.2	-1.6	-1	-5.3	3	4	-1.9	.	32
O=C(OCC(=O)N1CCCC1=O)C1COc2ccccc2O1 (stereo unspecified)	-1	1.3	-2.1	-10	-2.1	8	10	0.2	18%	7
CC(=O)OC(C(=O)NC1CCCCC1)c1ccncc1 (stereo unspecified)	-6	0.2	-4.2	-10	1.7	13	11	-2.3	25%	-4
O=C(c1ccc(Cl)cc1)c1ccc(OCC(=O)N2CCOCC2)cc1	0	-0.7	-1.3	4	.	.	.	.	2%&4%	-3
CCOC(=O)c1c(C)[nH]c(C(=O)CN(C)CC(=O)Nc2ccccc2C(F)(F)F)c1C	-7	0.4	.	.	4.4	-9	-32	-3.0	.	.
COc1ccccc1Nc1nnc(SCC(=O)c2cc(C)n(CC3CCCO3)c2C)s1 (stereo unspecified)	3	-1.1	-2.7	9	.	.	.	.	0%	-7
N#Cc1cn(-c2ccccc2)nc1-c1ccco1	.	-1.9	2.3	-42	.	.	.	.	8%	15
CCOc1ccc(S(=O)(=O)N2CCC(C(=O)NCc3ccccn3)CC2)cc1Cl	-7	0.2	0.5	-10	6.1	-4	7	0.2	.	6
O=C1CC(N2CCOCC2)C(=O)N1c1cc(Cl)cc(Cl)c1 (stereo unspecified)	-8	0.9	-2.2	-14	.	.	.	.	1%	-1
CN(C(=O)c1ccncc1)c1nnc(-c2ccncc2)s1	-10	1.1	1.7	-16	.	.	.	.	-5%	1
O=C1C2CCCN2c2ccc(S(=O)(=O)N3CCOCC3)cc2N1Cc1cccc(C(F)(F)F)c1 (stereo unspecified)	6	0.8	4.9	13	.	.	.	.	2%	7
COC(=O)CN1C(=O)Nc2ccc(Br)cc2C1c1ccccc1 (stereo unspecified)	2	-0.5	0.9	-3	.	.	.	.	2%	-4
Cc1ccc(NC(=O)C2CCCN(c3nccc(C)n3)C2)c(C)c1 (stereo unspecified)	1	0.6	2.9	-9	0.5	9	13	-1.6	.	7
Cc1ccc(Nc2ccc(S(=O)(=O)N3CCOCC3)cc2[N+](=O)[O-])c(C)c1	31	-1.3	3.6	17	.	.	.	.	.	26
COc1ccc(CNC(=O)c2cc(C3CC3)on2)cc1	-10	1.7	0.4	6	-5.3	-2	3	-2.4	4%	-5
COc1ccc(S(=O)(=O)n2nc(OC(=O)c3ccccc3Br)cc2N)cc1	-6	0.5	2.9	-23	.	.	.	.	26%	-14
COc1cc(S(=O)(=O)N2CCN(Cc3ccccc3)CC2)ccc1Br	7	0.2	-3.3	22	.	.	.	.	1%	-8
Cc1cc(C)nc(NC(=O)CSc2nc3ccccc3o2)n1	7	-1.0	-2.9	-16	.	.	.	.	12%	6
CCOc1ccccc1C(=O)Nc1cc(=O)n(C)c(=O)n1C	-5	0.9	-3.2	-7	5.7	11	14	-2.5	.	-1
COc1ccc(S(=O)(=O)NCCSC(C)(C)C)cc1Cl	4	0.3	0.9	5	.	.	.	.	6%	6
O=C1ON=C(c2ccccc2)/C1=C/c1ccc(OS(=O)(=O)c2ccccc2)cc1	2	-4.9	.	.	-13	-9	-4	-4.3	.	.
O=C(CN(Cc1ccc(F)cc1)C(=O)CNS(=O)(=O)c1ccccc1)NCC1CCCO1 (stereo unspecified)	-9	0.2	1.1	-13	0.5	3	10	-2.6	3%	1
COC(=O)c1cccc(C(=O)N2CCCC(Nc3ccc4c(c3)OCCO4)C2)c1 (stereo unspecified)	0	0.7	-1.1	2	3.4	-2	0	-0.6	.	-12
Cc1cccc(OCCNC(=O)CCc2ccccc2)c1	-7	0.0	-3.0	-6	-2.6	-10	4	-2.3	.	2
Cc1cc(OC(=O)c2ccccc2)n(CCC#N)n1	-3	1.4	-3.4	-4	.	.	.	.	-2%	-3
Cc1ccc(NC(=O)NC2CCCCCCC2)cc1C	-4	-0.4	.	.	-1.6	.	.	.	.	-8
CC(C)COC(=O)C(C#N)c1nc2ccccc2nc1N1CCN(Cc2ccc3c(c2)OCO3)CC1 (stereo unspecified)	2	0.6	-7.9	25	.	-1	-8	4.9	-3%	-26
COc1ccc([C@@H]2CC=C(C(=O)O)CN2S(=O)(=O)c2ccc(Cl)cc2)cc1	0	0.9	.	.	-0.2	1	-3	-10	.	.
COc1ccc(C(=O)NCC(=O)OCc2ccc(Br)cc2)cc1	-2	0.3	4.5	-5	0.7	14	14	4.4	13%	-6
COc1ccc(CN(C)C(=O)CNC(=O)c2ccc(C)cc2)cc1	-9	1.4	5.8	9	-2.7	2	9	-0.7	.	0
CS(=O)(=O)N1CCN(C2Cc3ccccc3C2)CC1	-3	-0.2	3.4	13	.	7	13	2.7	4%	4
COCc1nc2ccccc2n1Cc1c(F)cccc1Cl	-8	1.3	-3.9	-18	0.3	-4	-5	-1.0	-4%	17
COC(=O)c1cc(OC)c(OC)cc1NC(=S)N1CCC(C(N)=O)CC1	-3	-1.1	-3.6	1	.	.	.	.	2%	-21
CN(Cc1ccco1)c1ncnc2ccc(-c3ccccc3Cl)cc12	7	-0.5	.	.	-3.6	-34	-45	-21	.	.
O=C(CNC(=O)c1ccc2ccccc2c1)OCC(=O)N1CCN(S(=O)(=O)c2ccc3ccccc3c2)CC1	-19	1.8	-1.7	-7	-0.5	0	-6	6.4	-7%	8
Cc1cc(=O)[nH]c(N)n1	-4	-0.8	3.2	11	-3.8	10	2	-2.1	.	3
O=C1C2C3C=CC(C3)C2C(=O)N1c1n[nH]c(-c2ccccc2)n1 (stereo unspecified)	-4	-0.6	1.9	-3	.	.	.	.	3%	-22
Cc1ccc(OC(=O)CCNC(=O)c2ccccc2Cl)c(Br)c1	1	0.1	6.4	-4	1.7	-3	-13	1.2	5%	-18
COc1ccc(-n2c(=O)c(CCC(=O)N(C)Cc3ccccc3C)nc3ccccc32)cc1	.	0.1	2.8	27	3.2	.	.	.	.	0
CCO[C@H]1OC(C(=O)NC2CC2)=C[C@@H](C2CCCCC2)[C@@H]1CCCO	-2	-0.3	1.7	-6	-3.0&3.0	7	1	0.4	1%	17
COc1ccccc1NC(=O)N1CCCC1	-1	-0.2	1.5	-4	.	.	.	.	19%	1
Cc1cccc(OCCNC(=S)NC(=O)c2cccnc2)c1	0	0.4	-4.9	3	.	.	.	.	-3%	3
N#Cc1nc(-c2cccs2)oc1NCc1ccccc1	-1	1.6	?	3	.	.	.	.	-4%	-5
Cc1cccc2cc(CN(CC3CCCO3)C(=S)NCc3ccco3)c(=O)[nH]c12 (stereo unspecified)	-4	0.7	-4.5	4	.	.	.	.	-2%	-11
COC(=O)c1ccc(COc2cccnc2[N+](=O)[O-])cc1	-3	1.9	-0.6	-3	-0.8	4	0	-1.7	.	-2
CCN(CC)c1ccc(/C=N/NC(=S)NCc2ccco2)cc1	2	-0.6	-1.1	31	8.5	.	.	.	0%	4
O=C(NCc1ccccn1)c1nnc(Cc2ccc(Cl)cc2)o1	1	0.3	7.4	8	8.0	2	8	-4.7	19%	-6
CSc1ccccc1OCc1cc(C(=O)N2CCC[C@H]2C(N)=O)no1	-4	-0.2	4.7	7	0.9	0	12	0.6	.	3
CC(C)[C@H]1COCCS(=O)(=O)N1Cc1cccc(Cl)c1	-2	0.9	-0.7	1	-24	-7	-3	-2.6	.	3
Cc1c(C(=O)c2cccc(F)c2)c2ccccn2c1CCC#N	-4	-1.0	3.6	9	4.8	-8	-11	3.7	-7%	?
COc1cccc(CN(C)C(=O)CSCC(=O)Nc2cccc(C)c2)c1OC	-8	0.2	.	.	0.5	3	-14	1.5	-8%	.

Following part.
SMILES	Beta apoptosis	A1 inh	RanGTP-Imp inh	T cruzi repl	MLL AF4-AF9 inh	Ecoli rRNA inh	Ecoli rRNA inh OD600	Ecoli rRNA inh RFP	Vif TR-FRET	Calb FLC
CC(=O)c1ccc(OCc2cc(C(=O)N(C)Cc3ccccn3)no2)cc1	-1	0.6	-1.3	-1	0.4	2	2	2.5	.	-12
O=C(Cn1cc(/C=N/NC(=O)c2cccc(C(F)(F)F)c2)c2ccccc21)Nc1ccc(F)cc1	1	0.3	6.3	.	7.2	-1	0	-3.1	2%	-15
Cc1ccc(OCC(=O)O/N=C(\N)c2ccccn2)cc1C	.	-3.2	?	1	-2.4	.	.	.	24%	-8
CC[N+](CC)(CC#Cc1ccccc1)CC(=O)c1ccc(Cl)cc1	-7	0.0	-2.3	-4	8.2	-23*	2.1*	4.7*	-8%	-25
CC(C)(C)c1ccc(C(=O)O[C@H]2[C@H](Cc3ccccc3)NS(=O)(=O)[C@H]3C[C@@H]4C=C[C@]23O4)cc1	0	0.2	.	.	-3.0	10	0	0.9	.	.
Cc1cc(NC(=O)CSc2nncc(=O)n2N)no1	1	0.1	4.3	-7	-1.3	1	6	-5.1	.	-15

Source: PubChem
